Bm FixLJ act: activators of Burkholderia fixLJ two-component system, primary screen, B. multivorans, GFP reporter; B. multivorans fixK-promoter GFP reporter, 18 h; stronger effect = higher value; z-score (no concentration beside the values); 0.3% of 29,000 active;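 active means replicate mean overnight rise in green fluorescent reporter signal, 3 or more SD over negative controls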;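 further: score is relative to vehicle wells of the plate; 300 nL library stock went into each well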
The depositor's hits bear a star; & = joins results of further samples. An excerpt, so the mix of outcomes need not match the whole.

SMILES | Bm FixLJ act
CCN1CCC(NCCc2nc(Cc3ccccc3)no2)CC1 | -1.18
Cc1ccc(CNC(=O)CN(C)S(=O)(=O)c2ccc(Br)s2)cc1 | 2.07
O=C(O)C1CCCN1Cc1ccccc1OCCCN1CCOCC1 (stereo unspecified) | -0.92
CCOc1ccc2c(c1)c(=O)c(C(=O)c1ccc3c(c1)OCO3)cn2Cc1ccc(F)cc1 | -0.69
Cc1cccc(Cn2c(SCc3ccc(C(=O)N4CCC(C)CC4)cc3)nc3ccncc32)c1 | -3.38
Cc1ccc(NS(=O)(=O)c2ccc3c(c2)[C@H]2C=CC[C@H]2[C@@H](c2ccc(F)cc2)N3)cc1C | -0.84
CCOC(=O)c1c(NC(=O)c2cc(-c3ccc(OC)c(OC)c3)on2)sc(C)c1C | -0.46
CCc1ccc(NC(=O)CN(c2ccc(OC)cc2)S(=O)(=O)c2c(C)[nH]c(=O)[nH]c2=O)cc1 | -0.26
COc1ccc2c(c1)c1c(c(=O)n(-c3cccc(C)c3)c(=O)n1CC(=O)NCCC1=CCCCC1)n2C | 1.74
OC1CCC[C@@]12CCCN(c1cc(C(F)(F)F)nc(N3CCCC3)n1)C2 (stereo partly specified) | -1.12
O=C(Nc1ccc(F)cc1)c1ncn(-c2ccccc2)n1 | -0.24
CCCCSCCCNC(=O)c1cn(CC)c2ccc(S(=O)(=O)N3CCOCC3)cc2c1=O | -1.5
CC(=O)Nc1ccc(C)cc1NC(=O)CC1NC(=O)c2ccccc21 (stereo unspecified) | 0.3
Fc1cccc(-c2nnn3c2nc(NCc2ccc4c(c2)OCO4)c2ccccc23)c1 | -1.29
O=C(Cc1ccc(NC(=O)c2cncs2)cc1)NC1CC1 | 0
Cc1ccc(C(=O)Nc2c(-c3ccccc3)nc3ccccn23)cc1 | -0.1
Cc1ccc2nc(C3CCCN(C(=O)c4cc(C)no4)C3)[nH]c2c1 (stereo unspecified) | 0.62
CCc1ccc(OCC(=O)Nc2ccc(-c3nc4ncccc4o3)cc2)cc1 | -0.06
Cc1nn(C)c2c1C(NC(=O)c1cc(CC(C)C)on1)CCC2 (stereo unspecified) | -0.15
CCOc1ncccc1C(=O)N1CCC(C(O)c2nccn2C)CC1 (stereo unspecified) | 0.85
Cc1cc(C(F)(F)F)nc(CNC(=O)N2CCCCC2c2ccccn2)n1 (stereo unspecified) | -0.25
CNc1nc2c(c(C(=O)N3CCCC3)n1)CN(C(=O)c1ccccc1)CC2 | 0.22
CCCCOC(=O)c1ccc(NS(=O)(=O)c2c(C)nc3scc(C)n3c2=O)cc1 | -1.05
Cc1cc(CC2CN(C(=O)c3ccc(C)nc3C)CC2O)on1 (stereo unspecified) | -4.43
OCc1ccccc1O | -1.52
Cc1ccc2c(c1)-c1nc(-c3ccc(Cl)cc3)cc(-c3coc4ccccc4c3=O)c1CO2 | 0.57
COc1cccc(NC(=O)CCc2nnc3n(CC(C)C)c(=O)c4ccccc4n23)c1 | -1.72
CC[C@@]1(C(=O)O)CC(C(=O)N(C)CCO)C(c2ccc(F)cc2)N1C (stereo partly specified) | 0.22
Cc1ncc(CN2CC3CCC(C2)C3NC(=O)CCC2NC(=O)NC2=O)cn1 (stereo unspecified) | -1.32
Cc1cc(C(=O)NCc2nc(N)n[nH]2)c2c(C)nn(C)c2n1 | 0.15
CCOC(=O)COc1ccc(/C=C(\C#N)c2nc3ccc(C)cc3[nH]2)cc1OC | -1.39
Cc1nc2ncnn2c(C)c1CCC(=O)NCc1ccc(Cl)cc1 | -1.28
Cc1sc(-c2ccno2)cc1S(=O)(=O)N1CC(c2ccncc2)C1 | -1.37
Cc1ccc(N=C2NC(=O)CC(C(=O)Nc3cc(C(F)(F)F)ccc3Cl)S2)cc1 (stereo unspecified) | 0.19
O=C(Nc1cccc(C(F)(F)F)c1)c1cc2nc(-c3ccc4c(c3)OCO4)cc(C(F)(F)F)n2n1 | -0.27
COCCN1CN=C(NS(=O)(=O)c2ccc(C)cc2)NC1 | -2
CO/N=C(\C(=O)NC1C(=O)N2C(C(=O)OCOC(=O)C(C)(C)C)=C(/C=C\c3scnc3C)CSC12)c1csc(N)n1 (stereo unspecified) | -2.05
COc1ccccc1Nc1c2c(nc3ccc(NC(=O)/C=C/c4cccc(OC)c4OC)cc13)CCCC2 | -0.25
CSc1ccc(C(=O)NC(c2cnn(C)c2)C2CC(O)C2)cc1 (stereo unspecified) | 0.08
C[C@]12C=CC(=O)C=C1CC[C@@H]1[C@@H]2[C@@H](O)C[C@@]2(C)[C@H]1CC[C@]2(O)C(=O)CO | -0.83
Nc1ccc(S(=O)(=O)NC(=O)c2ccccc2)cc1 | 0.22
CCOC(=O)c1oc2c(c1C)-c1nn(Cc3ccccc3Cl)cc1CC2 | -0.87
COc1ccc(S(=O)(=O)N2CCC[C@]3(CCCC3O)C2)cc1Cl (stereo partly specified) | -0.18
Cc1ccc(-c2sc(C(=O)Nc3ccc(Br)cc3)cc2CC(=O)O)cc1 | -2.33
COc1ccccc1N1CCN(CCCNC(=O)c2nnc(Cc3ccc(F)cc3Cl)o2)CC1 | -1.76
CCCc1nc(C(=O)NC2COCC2Cc2ccncc2)cs1 (stereo unspecified) | -1.13
COc1ccc(-c2cc(C(F)(F)F)nc(SCC(=O)N3CCCCC3)n2)cc1OC | -2.1
Oc1ccc2c3c1O[C@H]1c4oc5ccccc5c4C[C@@]4(O)[C@@H](C2)N(CC2CC2)CC[C@]314 | -1.31
CN(C)C(=O)c1cccc(N2CCC3C(C2)OCc2cnnn23)n1 (stereo unspecified) | -0.98
COc1ccc(Nc2ncc(C(=O)Nc3cccc(Cl)c3)c3ccccc23)cc1 | 1.6
The listing continues:
SMILES | Bm FixLJ act
Cc1cccc(CSc2nc3ccncc3n2Cc2ccc(C(=O)O)cc2)c1 | -0.21
CNC(=O)C(NC(=O)C1(c2ccc(OC)cc2)CC1)c1ccccc1 (stereo unspecified) | 0.05
Cc1ccccc1-c1ncnn1-c1sc2c(c1C#N)CCCCC2 | 0.04
CN1C(=O)C(CCC(=O)NCc2ccoc2)(Cc2ccccc2)c2ccccc21 (stereo unspecified) | 1.4
O=C(NCCSc1c[nH]c2ccccc12)c1ccc(Cl)cc1 | -3.19
COc1ccc(-n2nc(C(=O)Nc3ccc(Br)cc3C)c3c4ccccc4n(C)c3c2=O)cc1 | -0.47
Cc1ccccc1-c1nccn1-c1c(C)nn(C2CCS(=O)(=O)C2)c1C (stereo unspecified) | 0.91
COc1ccccc1C(=O)NC(=O)Nc1ccc(-n2nc(C(F)(F)F)cc2C(F)(F)F)cc1 | -1.37
O=c1n(Cc2ccccc2Cl)c2ccccc2c2nc(-c3ccccc3)nn12 | 0.19
CCCSc1ncc(-c2nccn2CCc2scnc2C)cn1 | 1.12
Cc1ccc(CNC(=O)c2c[nH]n3c(=O)c(Cc4ccc(F)cc4Cl)c(C)nc23)cc1 | -1.4
Cc1ccccc1-c1noc(CCC(=O)N(C)Cc2nc3ccccc3[nH]2)n1 | 0.36
CCCCN(CCCC)C(=O)c1cc2c(=O)n3cccc(C)c3nc2s1 | -0.91
CC(C)(C)c1ccc(C(=O)Nc2ccc(Cl)cc2C(=O)c2ccccc2)cc1 | 0.32
CCCCCCC(=O)Nc1cc2nc3c(nc2cc1C)c(=O)n(C)c(=O)n3C | 1.01
CC(C)(C)OC(=O)N1CCC(c2nnc(SCc3ccccc3)o2)CC1 | -1.01
CC(=O)N1CCC(C(=O)N2CC(O)C(Cc3ccc4ccccc4n3)C2)CC1 (stereo unspecified) | -0.53
CCCCS(=O)(=O)c1oc(-c2cccs2)nc1S(=O)(=O)c1ccc(F)cc1 | -1.34
CCOc1ccc(C2C(C(=O)OC)=C(C)NC3=C2C(=O)c2ccccc23)cc1OC (stereo unspecified) | -0.31
CCOC(=O)Cn1c(=O)oc2cc(S(=O)(=O)N3CCN(c4ccc(Cl)cc4)CC3)ccc21 | 1.13
Cc1cc(CC2CN(C(=O)c3ccnn3C(C)C)CC2O)n[nH]1 (stereo unspecified) | 1.22
COc1ccc(CCNC(=O)CCc2c(C)c3cc4c(C)coc4c(C)c3oc2=O)cc1OC | -1.12
COCCN(Cc1cnn(C)c1)C(=O)NC1(Cc2ccccc2C)CC1 | -1.54
COc1ccc(-n2nc(C(=O)N3CCN(c4ccc(F)cc4)CC3)c3c4ccccc4n(C)c3c2=O)cc1 | -1.63
CC(=O)Nc1cccc(-c2nnc(SCC(=O)c3ccc([N+](=O)[O-])cc3)o2)c1 | -2.23
Cc1ccc(-n2c(C)nc3c(cnn3-c3ccccc3C)c2=O)cc1F | 0.31
COc1ccc(S(=O)(=O)N2CCC(c3nc4ccccc4s3)CC2)cc1OC | -0.75
CC(C)Cc1cc(C(=O)NCC2CCN(C(=O)c3cc(C#N)c[nH]3)CC2)n[nH]1 | 2
Cn1c(=O)c2c(nc(NCCc3ccccc3)n2Cc2cccc(Br)c2)n(C)c1=O | -1.57
O=C(C1CC(O)CN1)N1CCC2(CC1)OCCc1c2[nH]c2ccccc12 (stereo unspecified) | -0.08

Another view of three compounds above.
compound,Bm FixLJ act
CCOC(=O)c1oc2c(c1C)-c1nn(Cc3ccccc3Cl)cc1CC2,-0.87
OCc1ccccc1O,-1.52
O=C(Nc1ccc(F)cc1)c1ncn(-c2ccccc2)n1,-0.24

(continued)
SMILES | Bm FixLJ act
Cn1c(CCNC(=O)Nc2cc(N3CCOCC3)ccc2Cl)n[nH]c1=O | 0.15
Cc1cc(CC2CN(C(=O)CCc3ccsc3)CC2O)on1 (stereo unspecified) | -0.82
COC1CN(Cc2ccc(OCC(=O)O)cc2)CC1Cc1cc(C)no1 (stereo unspecified) | -0.45
COc1cccc(-c2nc(CN(C)Cc3snnc3C)c(C)o2)c1 | -2.85
Cc1nnc(SCC(=O)N2CCN(CC(C)C)C3CS(=O)(=O)CC32)o1 (stereo unspecified) | -1.22
Cc1cc(C)c(NC(=O)CCCN2C(=O)COc3ccc(C)cc32)c(C)c1 | -0.35
CCC(C)NC(=O)Cn1c(=O)n(CCCC(=O)NCc2ccc(C)cc2)c(=O)c2ccccc21 (stereo unspecified) | 0.41
CCc1nc2nc(C)cc(Nc3ccc(F)c(Cl)c3)n2n1 | -0.66
Cc1ccccc1C(=O)Oc1c(Sc2ccccc2)c(C)nn1C(C)(C)C | 0.31
CCN1CCSc2ccc(C(=O)NCc3cccc(Br)c3)cc21 | 1.45
COc1ccc2[nH]c(S(=O)Cc3ncc(C)c(OC)c3C)nc2n1 (stereo unspecified) | -1.46
COc1ccc2[nH]cc(CCN=C(NC(=O)c3cccc(Cl)c3)Nc3nc(C)cc(C)n3)c2c1 | -2.44
COc1ccc(C)cc1NC(=O)c1ccc2c(SCC(=O)O)c3c(nc2c1)CCCC3 | 0.49
O=c1ccc2ccccc2o1 | -0.34
Clc1ccc(COC(Cn2ccnc2)c2ccc(Cl)cc2Cl)c(Cl)c1 (stereo unspecified) | -2.9&-0.81
CCc1ccc(-n2c(=O)c3ccc(C(=O)NCCc4ccccc4)cc3n(CC(N)=O)c2=O)cc1 | -1.32
Nc1cc(=O)[nH]c(CCNC(=O)c2ccc(C3CCCO3)s2)n1 (stereo unspecified) | -0.98
CCn1cc(C(=O)NCCCN(CC(C)C)CC(C)C)c(=O)c2cc(S(=O)(=O)N(C)C3CCCCC3)ccc21 | -0.07
COc1ccc(-c2csc(-c3c(N)c(C(=O)c4ccccc4)n4ccccc34)n2)cc1OC | -1.05
COc1ccc(CCNC(=O)c2ccc3c(c2)N(Cc2ccccc2)C(=O)c2ccccc2S3=O)cc1OC (stereo unspecified) | 1.51
CCCCN(CC)CCCNC(=O)c1cc2c(=O)oc3ccc(C)cc3c2s1 | -1.31
COc1cccc(CN(C(=O)c2ccc(C(C)(C)C)cc2)C2CCS(=O)(=O)C2)c1 (stereo unspecified) | -1.38
COc1ccccc1-c1cc(CNC(=O)CCCC(=O)O)on1 | 0.36
CCc1ccc2c(c1)c(=O)c(S(=O)(=O)c1ccc(F)cc1)cn2CC(=O)Nc1ccccc1OC | -1.23
CCc1cccc(-n2c(C)nc3c(cnn3-c3ccc(Cl)cc3)c2=O)c1 | -0.66
CCN(CC)C(=O)C1CC(N)CN1S(=O)(=O)c1cc(C)ccc1OC (stereo unspecified) | 0.26
CSc1ccc(Nc2nn(-c3ccc(OC(F)(F)F)cc3)nc2C(C)=O)cc1 | -1.76
COc1ccc(NCc2ccccc2-c2nnc(-c3ccccc3)o2)cc1Cl | -0.41
CNC1(C)C2CCC(C2)C1(C)C (stereo unspecified) | -1.35
CC1[C@H](C)OC(=O)CC(O)CC(O)CC(O)CCC(O)C(O)C[C@]2(O)CC(O)C(C(=O)O)C(CC(OC3O[C@H](C)[C@@H](O)[C@H](N)[C@@H]3O)/C=C/C=C/C=C/C=C/CC/C=C/C=C/[C@H](C)[C@H]1O)O2 (stereo partly specified) | 0.39

Grouped by structure, the compounds so far containing an aryl thioether with sulfur outside any ring
SMILES | Bm FixLJ act
Cc1cccc(Cn2c(SCc3ccc(C(=O)N4CCC(C)CC4)cc3)nc3ccncc32)c1 | -3.38
CSc1ccc(C(=O)NC(c2cnn(C)c2)C2CC(O)C2)cc1 (stereo unspecified) | 0.08
COc1ccc(-c2cc(C(F)(F)F)nc(SCC(=O)N3CCCCC3)n2)cc1OC | -2.1
Cc1cccc(CSc2nc3ccncc3n2Cc2ccc(C(=O)O)cc2)c1 | -0.21
O=C(NCCSc1c[nH]c2ccccc12)c1ccc(Cl)cc1 | -3.19
CCCSc1ncc(-c2nccn2CCc2scnc2C)cn1 | 1.12
CC(C)(C)OC(=O)N1CCC(c2nnc(SCc3ccccc3)o2)CC1 | -1.01
CC(=O)Nc1cccc(-c2nnc(SCC(=O)c3ccc([N+](=O)[O-])cc3)o2)c1 | -2.23
Cc1nnc(SCC(=O)N2CCN(CC(C)C)C3CS(=O)(=O)CC32)o1 (stereo unspecified) | -1.22
Cc1ccccc1C(=O)Oc1c(Sc2ccccc2)c(C)nn1C(C)(C)C | 0.31
COc1ccc(C)cc1NC(=O)c1ccc2c(SCC(=O)O)c3c(nc2c1)CCCC3 | 0.49
CSc1ccc(Nc2nn(-c3ccc(OC(F)(F)F)cc3)nc2C(C)=O)cc1 | -1.76

Screens (PubChem)
